# VACV mCherry inh: inhibitors of vaccinia virus infection (mCherry reporter signal) | 310,000 compounds, 0.63% hits | Potency, µM (doses to about 36.5 µM), without a hit: top-dose activity change, negative = inhibition, most hits filed as inhibitors | AID 720579 | Vaccinia virus mCherry reporter infection, fluorescence; about a quarter of the inactives have no number; active = well fitted inhibition curve with a large enough effect; inconclusive = small, poorly fitted or top-dose-only effect; inactive = no such curve, though single readings can be large or run the other way; tested in A549 cells; further: nearly all actives have a fitted effect of over 35% in size; inactives centre near -10
# VACV Venus inh: inhibitors of vaccinia virus (Venus reporter); Vaccinia virus Venus reporter expression, fluorescence; Potency, µM (doses to about 36.5 µM), for inactives: at the highest dose activity change, negative = inhibition, actives largely listed as inhibitors; 330,000 compounds, 0.46% hits; AID 720580; active means well fitted inhibition curve with a large enough effect; inconclusive means small, poorly fitted or top-dose-only effect; inactive means no such curve, though single readings can be large or run the other way; tested in A549 cells; further: nearly all actives have a fitted effect of over 30% in size; inactives centre near -10
# * = called active by the depositor; i = inactive; ? = inconclusive; / = no result given; & = joins results of further samples; [ ] = remark or other dose. On the % scale 0 is the no-effect control and ±100 the full control effect; potency means the concentration at half of the fitted maximal effect.
SMILES	VACV Venus inh	VACV mCherry inh
COC(=O)C1=C(C(=O)OC)[C@@H]2Nc3ccccc3[C@@]23C[C@@H](C(=O)OC)N(C(=O)CC(C)C)C3=N1	-14%	-9%
COc1ccccc1Cc1nc2ccccc2nc1SCC(=O)N1CCCc2ccccc21	-4%	-13%
O=C(Nc1ccccc1C(F)(F)F)c1cnccn1	-10%	-15%
COc1ccc(C)cc1NC(=O)C1CCN(C(=O)C2CC(=O)N(c3ccc(C)cc3)C2)CC1 (configuration not stated)	-7%	-8%
COc1ccc(Br)cc1/C=N/NC(=O)c1cccnc1	-21%	0%
COc1ccc([C@H]2N[C@]3(CCCN(Cc4ccc(Cl)cc4)C3=O)[C@H]3C(=O)N(Cc4ccccc4)C(=O)[C@@H]23)cc1	-27%	-14%
C[C@H]1CN=C(N(C)C)N1CCCC1CCCCC1	-19%	-23%
O=C(CN(C(=O)CNS(=O)(=O)c1ccc(F)cc1)c1ccccc1F)NCc1ccco1	-5%	8%
O=C(Cc1cccs1)NCC1CCCO1 (configuration not stated)	-10%	-15%
CC1=C(C(=O)Nc2cccc(C(=O)NCc3ccc(F)cc3)c2)SCCO1	24%[7.34 µM]	7%[7.34 µM]
CC1=CCC2C(=O)N(c3ccc4ccccc4n3)C(=O)C2C1 (configuration not stated)	-29%	/
Cc1cc(C)c(N2CCN(S(=O)(=O)N3CCCCCC3)CC2)c(C)c1	-21%	/
CCC(C)NC(=O)c1cn(CC)c2ccc(S(=O)(=O)N3CCCCCC3)cc2c1=O (configuration not stated)	-24%	-7%
Cc1ccc(OCc2cc(C(=O)N3CC4C[C@@H]5CC3C[C@H](C4)C5)no2)cc1C	-13%	-4%
Nn1c(SCCOc2ccccc2)nnc1-c1cccnc1	-9%	-20%
COc1ccc(N2CCN(C(=O)c3ccc4c(c3)N(Cc3ccc(F)cc3)C(=O)c3ccccc3S4=O)CC2)cc1 (configuration not stated)	-17%	-28%
CCOC(=O)C1CCCCN1Cc1cccc(F)c1 (configuration not stated)	-14%	-14%
N#Cc1cnn(-c2nc3sc4c(c3c(=O)[nH]2)CCCC4)c1N	-23%	?
Cn1c(=O)[nH]c(=O)c2c1nc(Sc1ncccn1)n2CCCc1ccccc1	-16%	-1%
Cc1ccnc(NC(=O)c2ccc(OCc3c(C)noc3C)cc2)c1	-6%	-12%
CC(C(=O)OCC(=O)Nc1ccc(S(N)(=O)=O)cc1)N1C(=O)c2ccccc2C1=O (configuration not stated)	6%	-1%
C=CCc1cccc2cc(C(=O)OCC(=O)c3ccccc3)c(=O)oc12	-2%	/
CC(C)CNc1nnnc2c1sc1nc(N3CCOCC3)c3c(c12)CC(C)(C)SC3	-16%	?
O=C(CCCN1C(=O)C(c2ccccc2)Oc2cccnc21)Nc1ccc(Br)cc1F (configuration not stated)	0%	-6%
Cc1ccc(C)c(S(=O)(=O)Nc2ccc3oc(C)c(C(=O)O)c3c2)c1	7%	-19%
CS(=O)(=O)c1ccc(NCCc2ccc(S(N)(=O)=O)cc2)c([N+](=O)[O-])c1	-10%	-17%
C[C@@H]1CN([C@H](C)CO)C(=O)c2cccc(NS(=O)(=O)c3ccccc3)c2O[C@H]1CN(C)C	-4%	-8%
O=C(NC1CCCCC1)C(c1ccncc1)N(C(=O)Cn1nnc(-c2cccs2)n1)C1CCCC1 (configuration not stated)	-6%	-23%
O=C(NCCCNC(=O)c1cnccn1)c1cccc(Cl)c1	16%	-8%
COc1cccc(-n2c(N)cc(=O)nc2SCC(=O)N2CCN(c3ccccc3)CC2)c1	-12%	i
C=C(C)c1cccc(C(C)(C)NC(=O)N(Cc2ccccc2)Cc2ccco2)c1	-13%	/
O=C(COC(=O)C1CC1)Nc1ncc(C(F)(F)F)cc1Cl	0%	i
CCOC(=O)c1c(NC(C)=O)sc2c(OC(C)=O)cccc12	-11%	0%
Oc1ccccc1Cn1nnc2ccccc21	-15%	i
O=C(OCCCOc1ccc(F)cc1)c1ccc(O)cc1O	-27%	-18%
O=C1OC(c2ccccc2)c2ccccc21 (configuration not stated)	-3%	-4%
O=C(CCCN1C(=O)c2cccc3cccc(c23)C1=O)NC1CCS(=O)(=O)C1 (configuration not stated)	-7%	-11%
COc1ccc(C(=O)Nc2nc3ccc(S(=O)(=O)N4CCCC4)cc3s2)cc1	-14%	1%
O=C(CCNC(=O)c1ccccc1)NC1CCCc2ccccc21 (configuration not stated)	-8%	i
CCCCOc1ccc(S(=O)(=O)Nc2cccc(-c3ccc(N4CCOCC4)nn3)c2)cc1	-3%	-10%
OCC[C@H]1C[C@@H](O)[C@H](O)[C@]2(CCc3ccccc3CO2)O1	-9%	-16%
Cc1cc2nc(C)c(=O)n(C)c2cc1C	3%	-18%
O=C(c1cc(-c2cccc(Cl)c2)on1)N1CCc2ccccc2C1	-12%	13%
O=[N+]([O-])c1ccc(N2CCN(Cc3ccccc3)CC2)c2c1no[n+]2[O-]	4%	?
O=C(CCC(=O)N1C[C@H]2C[C@@H](C1)c1cccc(=O)n1C2)NCc1ccccc1	-2%	-2%
C[C@H](CO)N1C[C@H](C)[C@@H](CN(C)S(C)(=O)=O)Oc2ccc(NS(=O)(=O)c3cn(C)cn3)cc2C1=O	2%	-1%
Cc1oc(-c2cccc(Cl)c2)nc1CN1CCC(C(=O)NCCCN2CCN(c3ccccc3F)CC2)CC1	-29%	-28%
Cc1ccc(-c2csc(NC(=O)CN3CCOCC3)n2)cc1C	-12%	i
COc1ccc(CCNC(=O)COC(=O)c2cc(OC)c(OC)cc2OC)cc1OC	10%	i
CCOc1ccccc1CNS(=O)(=O)c1csc(C(N)=O)c1	-6%&-6%	-8%
CCNC(=O)C1CCCN(C(=O)c2ccccc2OC(F)(F)F)CC1 (configuration not stated)	-4%	37%[activator]
Cc1ccc(C(=O)/C=C/N(C)C)o1	-3%	-3%
COC(=O)c1ccc2nc(-c3ccc(Cl)cc3)c(CC3CCCCC3)n2c1	-3%	-12%
N/C(=N\OC(=O)c1ccc2ccccc2c1)c1ccc(Br)cc1	-1%	-10%
Cc1cc(C)cc(Oc2nc3c(c(=O)n(C)c(=O)n3C)n2Cc2ccc(F)cc2)c1	-12%	i
COc1ccc(Cn2c(O)c(/C=N/NC(=O)c3ccccc3O)c(=O)[nH]c2=O)cc1	5%	-2%
COC(=O)C1=C(C)NC(=S)N(C(C)=O)C1c1ccccc1 (configuration not stated)	-25%	/
O=C(NCc1ccncc1)C(=O)NCC(c1ccco1)N1CCN(c2ccccc2F)CC1 (configuration not stated)	0%	i
COc1ccc(CNC(=O)C[C@H]2C[C@H](C(=O)N3CCOCC3)[C@@]3(C)c4[nH]c5ccc(Cl)cc5c4CCN3C2=O)cc1OC	?	-14%
CC(=O)Nc1ccc(-c2csc(NNC(=O)c3ccc(C)cc3)n2)cc1	-3%	-8%

# (listing goes on)
SMILES	VACV Venus inh	VACV mCherry inh
O=C(NCC1CCN(C(=O)c2ccc([N+](=O)[O-])cc2)CC1)c1ccc([N+](=O)[O-])cc1	4%	3%
CC(C)c1ccc(OCC(=O)N2CCN(C(=O)c3ccco3)CC2)cc1	-9%	-14%
O=C(COc1ccccc1Cc1ccccc1)Nc1cccnc1	-15%	-5%
CC1(c2nnc(-c3ccc(Cl)cc3)o2)CC(c2ccc([N+](=O)[O-])cc2)=NO1 (configuration not stated)	-9%	?
CC(C)(C)OC(=O)CC12CCCCC1NC(=O)O2 (configuration not stated)	1%	-7%
COc1cc(C(=O)NCC(c2cccs2)N2CCOCC2)c([N+](=O)[O-])cc1OC (configuration not stated)	-2%	-19%
O=S1(=O)NC(=NCCOCCO)c2ccccc21	9%	-14%
Cc1cc(C(=O)N2CCCC(N3CCN(c4cccc(C(F)(F)F)c4)CC3)C2)n[nH]1 (configuration not stated)	-8%	-6%
CN1CCC(c2c[nH]c3ccccc23)C1 (configuration not stated)	-19%	-2%
Cc1cnc(C(=O)OCC(=O)Nc2ccc(Cl)cc2Cl)cn1	-6%	/
O=C(/C=C/c1ccco1)NCc1ccccn1	4%	i
COc1ccc(NC(=O)C2OCCc3ccccc32)c(OC)c1 (configuration not stated)	-27%	/
CCCCCCCCC#Cc1nc(C)ccc1OC	-4%	-12%
COC(C#CCCN(C)C)(c1ccccc1)c1ccccc1	-7%	-18%
CC(=O)N(/N=C1\Sc2ccccc2C1=O)c1ccccc1	5%	/
Cc1ccc(NC(=O)c2cc(C(=O)c3cc(Cl)ccc3O)cn(-c3ccc(C)cc3)c2=O)cc1	?	-1%
CCC(NC(=O)CCc1nnc(-c2cc(C)on2)o1)C12CC3CC(CC(C3)C1)C2 (configuration not stated)	-10%	i
CCc1ccc(NC(=O)C2CCN(c3nc(-c4ccc(OC)cc4)no3)CC2)cc1	-7%[7.34 µM]	-5%[7.34 µM]
CC(C)CCOCC1CC2(CC(C)(c3csc(N)n3)OC2=O)C(=O)O1 (configuration not stated)	-13%	-6%[1.46 µM]
Cc1ccc(C(=O)NC2CCCCCCC2)cc1S(=O)(=O)N1CCOCC1	-14%	i
O=C(CSc1nc(=O)n(CCCN2CCOCC2)c2c1CCCC2)Nc1ccc(F)c(F)c1	-18%	-7%
COc1cccc(-c2nn(-c3ccc(C)cc3)cc2C(=O)NCC2CCCO2)c1 (configuration not stated)	-19%	-7%
Cc1cc2c(cc1S(=O)(=O)Nc1ccc(C(C)C)cc1)OCCN2C	-24%	-20%
CCN1C(=O)c2ccc(C(=O)O)cc2C1=O	1%	-4%
COc1ccc(C(C)=O)cc1COC(=O)CCNS(=O)(=O)c1ccc(C)cc1	-7%	-19%
Cc1cccc(NC(=O)Cn2cnc3ccc(S(=O)(=O)N4CCC(C)CC4)cc3c2=O)n1	-15%	-2%
CNC(=O)CN1C(=O)NC(Cc2c[nH]c3ccccc23)C1=O (configuration not stated)	-4%	-24%
COc1ccc(S(=O)(=O)N2CCCCC2c2cc(C(=O)NC(C)C)no2)cc1 (configuration not stated)	-9%	37%[activator]
COc1ccc(N2CC(C(=O)N/N=C/c3ccc(C)cc3)CC2=O)cc1 (configuration not stated)	-15%	i
CCn1c(=NC(=O)COc2ccccc2)sc2cccc(F)c21	3%	-10%
O=C(N1CCOCC1)N(Cc1ccco1)CC1CCCO1 (configuration not stated)	-29%	/
Cn1c(SCC(=O)NCc2ccc3c(c2)OCO3)ncc(C(=O)Nc2ccc(F)cc2)c1=O	-1%	-6%
c1ccc(-c2cncnc2)cc1	-4%	i
O=C(Nc1cc(S(=O)(=O)N2CCOCC2)ccc1N1CCCCC1)c1cc(-c2ccccn2)nc2ccccc12	-3%	3%
Clc1ccc(-n2nnnc2-c2cnc3ccccc3c2-c2ccccc2)cc1	-18%	-26%
Cc1ncc([N+](=O)[O-])n1CCOC(=O)NC(Nc1ccc(F)cc1)C(Cl)(Cl)Cl (configuration not stated)	0%[7.34 µM]	-9%[7.34 µM]
NC(N)=N/N=C/c1ccc(Cl)cc1Cl	?	?
CCc1nc2ccccc2nc1N1CCN(S(=O)(=O)c2ccc(Cl)cc2)CC1	-18%	i
c1ccc(Oc2cc(-n3cncn3)ncn2)cc1	-9%	-13%
O=C(Nc1ccc(Br)cc1C(=O)c1ccccc1Cl)c1ccc(Br)cc1	-9%	-11%
O=C(O)c1c[nH]c(=S)n1-c1ccc(F)cc1	-15%	i
NC(=O)C1=C[C@H](c2ccc(Br)cc2)C[C@H](OCc2ccc(CO)cc2)O1	-13%	-4%
COc1ccc(-c2nc3sc(CCNC(=O)c4cccc(C(F)(F)F)c4)c(C)n3n2)cc1	-9%	-11%
COc1ccc(NC(=O)Cc2nnc(SCC(=O)c3ccccc3)n2C)cc1	-13%	2%
O=C(COC(=O)c1ccccc1Cl)Nc1ccc2[nH]c(=O)[nH]c2c1	7%	i
COc1ccc(CN(C(=O)c2snc(C(N)=O)c2N)C(C)C(=O)NCc2ccc(F)cc2)cc1 (configuration not stated)	-18%	-14%
O=C(NC(=S)Nc1cccc(S(=O)(=O)NC2=NCCC2)c1)c1cc(-c2ccco2)nc2ccccc12	-19%	?
CCCCCCCCCC[n+]1ccc(/C=C/c2c(C)[nH]c3ccccc23)cc1	398%[activator]	?

# Three structures from above, arranged by length of the SMILES, smallest number first.
SMILES	VACV Venus inh	VACV mCherry inh
c1ccc(-c2cncnc2)cc1	-4%	i
NC(N)=N/N=C/c1ccc(Cl)cc1Cl	?	?
O=C(Nc1cc(S(=O)(=O)N2CCOCC2)ccc1N1CCCCC1)c1cc(-c2ccccn2)nc2ccccc12	-3%	3%

# Reprinted at random: 6 records from the list
SMILES	VACV Venus inh	VACV mCherry inh
O=C(NC1CCCCC1)C(c1ccncc1)N(C(=O)Cn1nnc(-c2cccs2)n1)C1CCCC1 (configuration not stated)	-6%	-23%
CCN1C(=O)c2ccc(C(=O)O)cc2C1=O	1%	-4%
Cc1ncc([N+](=O)[O-])n1CCOC(=O)NC(Nc1ccc(F)cc1)C(Cl)(Cl)Cl (configuration not stated)	0%[7.34 µM]	-9%[7.34 µM]
Cc1ccc(C)c(S(=O)(=O)Nc2ccc3oc(C)c(C(=O)O)c3c2)c1	7%	-19%
c1ccc(-c2cncnc2)cc1	-4%	i
O=C(NCc1ccncc1)C(=O)NCC(c1ccco1)N1CCN(c2ccccc2F)CC1 (configuration not stated)	0%	i

# Screens (PubChem BioAssay)

# Random draw from the library. About 0.86% of those tested had a hit in this group.
